# UUG fidelity – yeast start codon fidelity modulation | S. cerevisiae UUG-firefly luciferase reporter, luminescence/redox ratio | activity score, % at 18.7 µM | 350,000 compounds, 0.13% hits | AID 602363;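 active = replicate mean at a twofold rise or more, about +100% in these data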;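 note: firefly luciferase made from a UUG start codon reports start codon fidelity; reporter light over untreated wells divided by growth signal over untreated wells; some hits fall short of that in this replicate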
# Rce1 inh – yeast Ras-converting enzyme inhibition; yeast membranes, quenched prenylated peptide cleavage fluorescence; calls only; Q03530; AID 2563; 290,000 compounds, 0.27% hits;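 active = fall in fluorescence gain of 50% or more versus controls, with final raw signal at or below 3038400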;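 note: plate controls were neutral control wells for no effect and wells lacking membranes for full effect; tested at 10 µM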
# Target sequence (Q03530 whole entry, looked up): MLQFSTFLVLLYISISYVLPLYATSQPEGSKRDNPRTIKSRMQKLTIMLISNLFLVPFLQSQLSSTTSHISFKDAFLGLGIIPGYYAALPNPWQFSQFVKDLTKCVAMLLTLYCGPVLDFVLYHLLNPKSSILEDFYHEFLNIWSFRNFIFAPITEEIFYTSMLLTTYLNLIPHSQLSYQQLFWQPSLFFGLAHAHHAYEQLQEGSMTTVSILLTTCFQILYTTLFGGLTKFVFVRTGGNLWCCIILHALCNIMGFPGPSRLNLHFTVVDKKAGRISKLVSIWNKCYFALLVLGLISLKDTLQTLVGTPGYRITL
# CSC inhib – blocks cancer stem cells; cancer stem cell-like cells viability, luminescence; inhibition, % at 7.5 µM; 300,000 compounds, 1.1% hits; AID 2717;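 active = mean at 75% or more and at least half the replicates too; tested in HMLE shEcad cells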;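 note: 0% = median of negative and 100% = median of positive control wells; the first replicate is given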
# eIF4H inh – inhibitors of RNA binding by human eIF4H; Q15056; eIF4H fluorescence polarization binding assay; inhibition, % at 35 µM; 290,000 compounds, 0.94% hits;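 active = 50% or more with normal probe brightness, or confirmed in later tests; about a fifth of its hits are not listed in these tables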;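 note: calls also rest on retests at 20 µM and on dose response follow-up; 0% = protein and probe with vehicle and 100% = probe without protein; strong numbers were not always called active; many hits fall short of the cut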
# HIV Env fusion – inhibitors of HIV Env-mediated cell fusion; HeLa-JRFL Env/CEM21 cell fusion, luciferase; inhibition, % at 12.3 µM; 360,000 compounds, 1.1% hits;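 active = mean replicate inhibition score of at least 50 and every replicate individually at or above 50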;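 note: 0% = plate neutral controls and 100% = maraviroc near 300 nM; one replicate is shown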
# MT1-MMP act inh – inhibitors of human MT1-MMP activation; HT1080 RFP-PRO-GFP cells, GFP/RFP ratio fluorescence, overnight; percent of plate control window, DMSO zero; GFP/RFP ratio change, % at 20 µM; 360,000 compounds, 0.061% hits;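 active = GFP/RFP ratio change of at least 30% with cell ATP level not reduced by more than half and red fluorescence within 50% of control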; note: strong numbers were not always called active
#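 system = RFP-PRO-GFP reporter HT1080 cells | dosing = 20 µM single dose, 1% DMSO | timing = overnight cell settling, then overnight compound exposure, 37 °C, 5% CO2 | read-out basis = GFP/RFP fluorescence ratio | controls = DMSO and RFP-L50D-GFP cell wells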
# PABP FP inh – PABP-poly(A) binding inhibition. P11940. PABP-poly(A) RNA binding, fluorescence polarization. inhibition, % at 35 µM. 290,000 compounds, 1% hits. AID 2014;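 active = 50% or more with normal probe brightness, or confirmed in later tests; about a fifth of its hits are not listed in these tables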;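 note: calls also rest on retests at 20 µM and on dose response follow-up; controls were probe without protein and protein plus probe with vehicle; some compounds called inactive have numbers as strong as hits; many hits fall short of the cut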
# eIF4H inh retest – second read-out of eIF4H inh, no call of its own (marks repeat the call); inhibition, %; compound at 20 µM; confirmation average;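 mean of two retest wells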
# PABP FP inh retest – recorded beside PABP FP inh, whose call it bears; inhibition, %; compound at 20 µM; confirmation repeats;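 mean of two retest wells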
# MT1-MMP act inh RFP – recorded beside MT1-MMP act inh, whose call it bears; RFP signal change, %; measured here: RFP expression control read;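 0 = vehicle wells; hits needed this value within 50% of zero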
# Active calls of the source: *; i = inactive; . = not tested or not shown; + = active, no number.
SMILES,UUG fidelity,Rce1 inh,CSC inhib,eIF4H inh,HIV Env fusion,MT1-MMP act inh,MT1-MMP act inh RFP,PABP FP inh,others
CCOC(=O)c1ccc(NS(=O)(=O)c2cn(C)cn2)cc1,-5,i,-20,8,4,0,4,0,
O=C(OCC(=O)N1CCCc2ccccc21)c1cc(Cl)ccc1O,8,i,-10,-4,.,0,0,2,
Cc1ccc(-c2nc(N3CCOCC3)sc2C(=O)N2CCCCC2)cc1,13,i,23,-4,-15,-3,5,-19,
Cc1ccc(S(=O)(=O)N2CCN(C(=O)COc3ccc(Br)cc3)CC2)cc1,-14,.,.,.,2,-3,-12,.,
CC(=O)Nc1ccc(/C=C(\C#N)C(=O)NC2CCCCC2C)cc1 (configuration not stated),.,i,-2,-1,7,-6,-1,6,
O=C(NCc1ccco1)c1cccc(F)c1,-2,i,1,-2,-23,-5,1,10,
CCC(C)C(=O)Nc1ccccc1N1CCN(c2ccc(F)cc2)CC1 (configuration not stated),-13,i,1,-8,1,-2,-8,2,
CCC1CN(C(=O)NCc2ccc(F)cc2)c2cc(C)ccc2O1 (configuration not stated),-4,i,-3,-4,14,0,1,10,
Cc1c(Cl)cccc1NC(=O)Nc1cnccn1,-4,i,.,-1,-18,-9,-4,-3,
CCOC(OCC)c1cc2ccccc2cn1,-7,.,-13,.,-44,4,3,.,
O=C1CC(N2CCN(Cc3ccccc3)CC2)C(=O)N1c1ccc2c(c1)OCCO2 (configuration not stated),26,i,0,-5,.,1,1,10,
COc1ccccc1-n1c(-c2ccc(NS(C)(=O)=O)cc2)n[nH]c1=S,-25,i,0,2,.,6,5,-2,
COc1cc2c(cc1OC)CN(C(=O)c1ccc(Cl)c(S(=O)(=O)N3CCCC3)c1)CC2,6,.,-7,.,2,1,-8,.,
Nc1cc(N2CCCCC2)c([N+](=O)[O-])cc1Cl,1,i,-9,-4,.,1,1,-8,
CC1Cc2ccccc2N1S(=O)(=O)c1cccc(C(=O)NCCCO)c1 (configuration not stated),.,i,10,-6,.,0,2,-2,
Cc1cc(N2C(=O)C(O)=C(C(=O)c3ccc(C)o3)C2c2ccc([N+](=O)[O-])cc2)no1 (configuration not stated),-10,i,0,-4,-1,-1,-1,4,
CC1=NC(=O)C(N=Nc2ccccc2)N1c1ccccc1 (configuration not stated),-19,i,-15,0,.,3,1,22,
Cc1c(NS(=O)(=O)c2ccc([N+](=O)[O-])cc2)c(=O)n(-c2ccccc2)n1C,-24,i,-10,-5,-1,-5,1,8,
O=C(NOC(=O)c1ccccc1)c1ccccc1,98,i,-3,-12,10,1,3,-5,
CCOc1ccccc1NC(=O)COC(=O)Cc1ccc(-c2ccccc2)cc1,-18,i,3,-4,17,4,5,14,
O=C(CN1CCCC1)Nc1nc(-c2ccc3c(c2)CCN3C(=O)c2ccccc2F)cs1,0,i,.,2,.,4,-3,7,
Cc1ccc(C(C(=O)NC2CCCC2)N(Cc2ccco2)C(=O)CCC(=O)Nc2ccccn2)cc1 (configuration not stated),1,i,-1,-4,.,-3,-3,-4,
CC(NS(=O)(=O)c1ccccc1)C1COc2ccccc2O1 (configuration not stated),-2,i,29,-3,.,2,1,4,
CC(C)c1onc(C(=O)N2CCN(C(c3ccccc3)c3ccccc3)CC2)c1[N+](=O)[O-],-1,i,49,2,-25,-13,-11,11,
O=C(NC(=S)Nc1ccc(N2CCOCC2)c(Cl)c1)c1sc2ccccc2c1Cl,.,i,0,-4,-7,6,4,1,
O=C(NCC1CCCCC1)c1cc(Br)ccc1Cl,-4,i,-10,-6,5,2,-1,0,
CC1=NN(c2nc(-c3ccc(C#N)cc3)cs2)C(=O)C1,.,.,1,13,-3,.,.,11,
O=C(CCc1ccccc1)Nc1cc(S(=O)(=O)N2CCOCC2)ccc1N1CCCC1,-1,.,.,.,-73,-1,1,.,
Cc1cc(F)ccc1-c1cc(C(=O)NCc2cccs2)[nH]n1,-12,.,.,.,-19,5,1,.,
O=C(CN1CCC(N2CCCCC2)CC1)N1CCOCC1,.,i,-10,7,9,.,.,0,
C[C@]12C(=O)N(c3ccc(F)cc3)C(=O)N1[C@@H]1c3ccccc3OC[C@@H]1[C@H]2c1ccccc1,6,i,-9,-6,4,-6,1,0,
CNC(=S)Nc1cc(Cl)ccc1Oc1ccccc1,.,i,3,2,7,6,1,20,
COc1cc(CC(=O)NCc2cccs2)cc(OC)c1OC,-10,i,4,-15,.,3,3,-5,
COc1ccc(C2=NN(C(=O)CCC(=O)O)C(c3cccs3)C2)cc1 (configuration not stated),.,+,-9,-2,3,3,2,0,
COc1ccc2ccccc2c1C1CC(=O)N2CN(C3CCCCC3)CSC2=C1C#N (configuration not stated),-16,i,36,0,3,4,3,6,
Cc1nc(Cl)c(C(=O)Nc2cccc(F)c2)c(C)c1Cl,.,i,-7,-2,3,-5,-6,-1,
NC(=O)CC(NC(=O)Cc1ccc(Cl)cc1)c1ccc(N2CCN(c3ccccn3)CC2)c([N+](=O)[O-])c1 (configuration not stated),-8,i,5,-8,.,2,-1,-2,
CCOC=C1SC(=S)N(c2ccccc2OC)C1=O,-8,.,.,.,-4,3,7,.,
CC(C)OP(=O)(OC(C)C)C1(O)C(=O)Nc2ccccc21 (configuration not stated),-17,i,.,-3,.,2,4,1,
Cc1c(N/C=C/C(=O)c2ccc(Cl)cc2)c(=O)n(-c2ccccc2)n1C,-10,i,-3,-5,.,5,1,10,
CCCn1c(SC2C(=O)CC(C)(C)CC2=O)nc2c1c(=O)n(C)c(=O)n2C,-4,i,-11,-5,.,8,3,-8,
CS(=O)(=O)N(Cc1ccccc1)c1ccc(C(=O)NCCSCc2ccco2)cc1,-4,i,-14,19,-45,-2,0,-14,
CCOc1ccc(OCC)c(NC(=O)CCCN2C(=O)c3cccnc3C2=O)c1,11,i,.,-6,.,-2,4,3,
Cc1ccccc1NC(=O)Cn1c(CCC(=O)O)ccc1-c1cccs1,.,i,-10,5,4,1,2,-4,
CCCc1nc2ccc(C)cn2c1Cc1cccc(F)c1,39,.,.,.,-4,1,-4,.,
Cc1cc(C)n(-c2ccc3nnc(C)n3n2)n1,.,i,5,-5,-13,0,1,1,
CN(C)CCCNC(=S)Nc1ccc(Oc2ccccc2)cc1,.,i,36,-1,20,1,2,0,
CCN(c1ccccc1)S(=O)(=O)c1ccc(OC)c(NC(=O)c2ccccc2OC)c1,-16,.,.,.,9,-2,-3,.,
CC(=O)OC[C@H]1O[C@H](C/C=N/O[C@@H](C)c2cn([C@H](CO)Cc3ccccc3)nn2)C=C[C@@H]1OC(C)=O,.,i,-1,-2,.,.,.,29,
COc1ccc(NC(=O)c2sc3nc(N4CCOCC4)c4c(c3c2N)CC(C)(C)OC4)cc1,-15,i,-9,-1,8,1,2,-6,
CN1CCN(c2ccc(NC(=O)c3ccc4c(c3)[nH]c(=O)n4Cc3ccc(F)cc3)cc2)CC1,.,i,57,9,40,4,-3,12,
Cc1nc(N2CCN(C(=O)c3ccco3)CC2)[nH]c(=O)c1C,-15,i,-14,-5,3,-4,3,3,
O=C(CN1c2cccc3cccc(c23)S1(=O)=O)Nc1ccccc1,4,i,3,1,6,1,2,0,
Cc1ccc(-n2c(-c3ccc(Cl)cc3)n[nH]c2=S)c(C)c1,-19,i,-12,3,-9,0,-6,-10,
N#Cc1ncc(C(F)(F)F)cc1Oc1cccnc1,.,i,.,3,-8,2,3,-8,
COc1ccc(/C=C/c2nc(C)c(-c3ccccc3)c(=O)[nH]2)cc1OC,-3,i,-1,5,20,4,4,6,
Clc1cc2nc[nH]c2cc1Cl,.,i,0,16,-9,1,5,-4,
CCOc1ccc(CCN2C(=S)N([C@@H](CC(C)C)CN3CCCC3CN3C(=S)NC[C@@H]3Cc3ccc(O)cc3)C[C@@H]2Cc2ccc(O)cc2)cc1 (some centres not stated),-15,.,.,.,-20,-4,-15,.,
CCOC(=O)N1CCN(C(c2cccc(OC)c2)c2sc3nc(C)nn3c2O)CC1 (configuration not stated),-17,i,-8,-5,.,-1,4,-8,
CN(C)C(C)(C)C#CC(O)(c1ccccc1)c1ccccc1,.,i,-13,-4,6,-2,2,2,

# (continued)
SMILES,UUG fidelity,Rce1 inh,CSC inhib,eIF4H inh,HIV Env fusion,MT1-MMP act inh,MT1-MMP act inh RFP,PABP FP inh,others
O=C(Cc1ccc(Cl)cc1)Nc1cccnc1,-16,i,-2,0,5,6,2,-4,
Cc1nn(C)c(C(=O)Nc2cccc(CN3CCOCC3)c2)c1Br,.,i,-14,-5,-1,0,-2,6,
Cc1noc(C)c1C(=O)OCC(=O)NCc1ccc(Cl)cc1,-7,.,.,.,-3,-1,2,.,
Cc1cc([N+](=O)[O-])nn1CCCC(=O)Nc1cc(Cl)ccc1Cl,-20,i,-8,5,14,1,-5,3,
CCN1CCN(Cc2ccc(OCc3ccccc3)c(OC)c2)CC1,-13,i,39,-2,-33,4,2,16,
CCOc1ccc(C(=O)NC(=S)Nc2cc(C)ccn2)cc1[N+](=O)[O-],.,i,-8,.,-11,2,0,.,
Cc1cccnc1NC(=O)CN1C(=O)NC(C)(c2ccc3ccccc3c2)C1=O (configuration not stated),.,i,-3,.,-40,-5,-4,.,
COc1ccc(NS(=O)(=O)c2cc(NC(=O)CCSc3ccccc3)ccc2OC)cc1,-1,i,-2,5.3*,9,-1,-8,75*,eIF4H inh retest=89*;PABP FP inh retest=97*
CCC(Oc1ccc(Br)cc1)C(=O)N1CCN(c2ncccn2)CC1 (configuration not stated),0,i,-24,2,-244,0,-1,-2,
O=C(/C=C/c1ccco1)NC(=S)Nc1ccccc1N1CCOCC1,-9,i,-2,0,-19,-12,-9,-1,
CCOc1ccc(CN(Cc2ccco2)S(=O)(=O)c2ccc(-n3cnnn3)c(OC)c2)cc1,15,i,0,-12,-83,2,-11,4,
CCCc1cc(-c2n[nH]c(=S)n2-c2cccc(C)c2)cs1,-15,i,28,4,-11,0,-5,8,
COC(=O)C(OC(=O)c1ccc(OC)cc1)C(=O)OC,-15,.,-3,4,-24,2,1,-5,
Nc1cccc(NC(=O)c2ccco2)c1,-11,i,-3,6,-10,4,6,0,
COc1cccc(-c2nn(C)c3sc(C(=O)Nc4ccc5c(c4)OCCO5)cc23)c1,-1,i,40,1,.,-3,-7,2,
Cc1noc(C)c1CN1C(=O)NC(Cc2ccccc2)(Cc2ccccc2)C1=O,-22,i,.,-9,.,0,2,-11,
COc1cc2c(cc1NC(=O)CSc1nnc(Cc3cccs3)n1C)oc1ccccc12,.,i,-9,-8,.,1,-2,-5,
CCc1ccc(OCC(=O)NNCC(=O)Nc2ccc(OC)cc2)cc1,-2,.,.,.,-3,2,-1,.,
Cc1ccc(-c2nc3[nH]c(=O)cc(NC(=O)c4cccs4)n3n2)cc1,-12,i,35,-3,-13,-6,-4,0,
O=C(CN1CCCCCC1)Nc1ccc([N+](=O)[O-])cc1Cl,-9,i,1,-2,-59,-2,-2,4,
C/C(=N\NC(=O)c1nc2ccccn2c1C)c1ccc2c(c1)OCO2,-5,i,-1,-2,9,3,3,6,

# Looked up by compound from above:
SMILES,UUG fidelity,Rce1 inh,CSC inhib,eIF4H inh,HIV Env fusion,MT1-MMP act inh,MT1-MMP act inh RFP,PABP FP inh,others
CCOc1ccc(OCC)c(NC(=O)CCCN2C(=O)c3cccnc3C2=O)c1,11,i,.,-6,.,-2,4,3,
CCN1CCN(Cc2ccc(OCc3ccccc3)c(OC)c2)CC1,-13,i,39,-2,-33,4,2,16,
CCN(c1ccccc1)S(=O)(=O)c1ccc(OC)c(NC(=O)c2ccccc2OC)c1,-16,.,.,.,9,-2,-3,.,

# Compound activity: PubChem BioAssay, several laboratories
